# RN4220 kill – growth inhibition of S. aureus RN4220, primary screen, OD600 | 16 h | inhibition, % (concentration not given with the values) | actives 0.33% (n = 330,000) | AID 1259311, 2017;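 active = z-score of -3 or lower and OD600 up to 0.18 on both plates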;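 also: plate controls were untreated cells for no effect and reference antibiotic for full effect; stock transfer was 100 nL into about 80 µL; one replicate is shown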
# PrP UTR inh – inhibition of PrP 5' UTR reporter expression | cell-based PrP 5' UTR mRNA reporter, plate reader | inhibition, % (test concentration not listed) | actives 0.35% (n = 340,000) | AID 488862, 2010;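 active = every replicate at 50% or more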;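 also: 0 = median of the neutral control wells; tested in H4 reporter cells; numbers are from one replicate; inactives centre near -14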
# Autofluor counter – flagged as autofluorescent in microsphere protease counterscreen. compound autofluorescence counterscreen, microsphere flow cytometry; stronger effect = higher value. fluorescence intensity (concentration not given with the values). actives 3.1% (n = 360,000). AID 624483;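 active = at least 3 SD above the mean of all compounds, about 16000 in these data; inconclusive = too few beads counted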;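 also: 100 nL of 1 mM stock went into each well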
# ugtP null kill – growth inhibition of ugtP-null S. aureus, primary screen, RN4220 ugtP deletion, OD600; growth inhibition, % (test concentration not listed); AID 1259309, 2017; 16 h; some inactives read as strong as hits; actives 0.54% (n = 330,000);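 active = z-score under -3 and OD600 up to 0.15 on both plates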;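 also: plate controls were untreated wells for no effect and antibiotic for full effect; wells of about 80 µL received 100 nL stock; the first replicate is given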
# BJeLR lethal – MLPCN primary cell-based screen for lethality selective to Ras in HRASV12 cells; BJeLR (HRASV12) viability, CellTiter-Glo ATP luminescence, 48 h; reference of the scale not given here; inhibition, % (concentration not given with the values); actives 0.17% (n = 300,000); AID 1554, 2009;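 active = replicate mean above 50%; inconclusive = above 50% but judged a plate artefact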;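 also: 50 nL library stock added to about 25 µL; numbers are from one replicate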
# Mtb hypoxia rep – PubChem AID 1159583; fluorescence inhibition, % (concentration not given with the values); M. tuberculosis hypoxia-regulated fluorescent reporter, fluorescence; actives 0.1% (n = 300,000);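 active = 35 to 45% if threefold the growth effect, above 45% if 1.5-fold the growth effect; inactive = the rest, general growth blockers included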;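 also: wells of about 50 µL received 100 nL stock; 0% = vehicle wells and 100% = reference inhibitor wells; whole bacteria with a GFP reporter of the hypoxia response; strong numbers were not always called active; many hits fall short of the cut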
# Mtb hypoxia rep growth – second read-out of Mtb hypoxia rep, no call of its own (marks repeat the call); growth inhibition, %; measured here: M. tuberculosis growth (absorbance);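 0% = vehicle and 100% = reference antibiotic; read after six days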
# * marks the source's active call; other numbers are inactive results; ? = inconclusive; . = no result given. The order is random. About 3.9% of those tested had a hit in this group.
# The opening 2 compounds (preview)
mol	RN4220 kill	PrP UTR inh	Autofluor counter	ugtP null kill	BJeLR lethal	Mtb hypoxia rep	Mtb hypoxia rep growth
COc1ccc(S(=O)(=O)n2nc(C)c(S(=O)(=O)N3CCOCC3)c2C)cc1	0.7	-11	4069	1	4	-6	2
COc1ccc(-n2c(O)c(C(C)=Nc3ccc4c(c3)CCC4)c(=O)[nH]c2=O)cc1	5.2	.	4484	4	-2	11	11

# Results, from the start:
mol	RN4220 kill	PrP UTR inh	Autofluor counter	ugtP null kill	BJeLR lethal	Mtb hypoxia rep	Mtb hypoxia rep growth
COc1ccc(S(=O)(=O)n2nc(C)c(S(=O)(=O)N3CCOCC3)c2C)cc1	0.7	-11	4069	1	4	-6	2
COc1ccc(-n2c(O)c(C(C)=Nc3ccc4c(c3)CCC4)c(=O)[nH]c2=O)cc1	5.2	.	4484	4	-2	11	11
CN(C)c1cc[n+](Cc2ccccc2)cc1	1.6	7	2871	3	10	.	.
Cc1ccc(Nc2nnc(-c3ccccc3N)o2)cc1C	3.7	-154	.	-5	-8	14	16
O=C(NN=Cc1ccccn1)c1ccco1	2.0	.	.	-2	.	9	18
Cc1nc2nc3c(c(=O)n2[nH]1)CCC3	4.4	-28	6130	7	6	12	7
CN1CCN(N=Cc2ccc(C#N)cc2)CC1	4.5	.	.	7	.	9	1
COCCCNc1nc(CC(C)C)nc2c1nnn2Cc1ccccc1	4.1	-11	3603	8	-3	4	4
COc1ccccc1CCNS(=O)(=O)c1cn(C)nc1C	6.1	-10	.	9	2	8	-1
CC(C)/C=C1\CCc2c([nH]c3ccccc23)C1=O	7.5	-19	3562	6	-5	12	15
COc1ccc(C2C(C(=O)Nc3ccccc3)=C(C)N=C3SCC(=O)N32)cc1 (centres undefined)	2.0	-6	2852	-3	6	.	.
O=C1[C@H]2[C@@H](c3ccc(F)cc3)N3C(=O)N(c4cccc(F)c4)C(=O)[C@@]3(Cc3ccccc3)[C@H]2C(=O)N1C1CCCCC1	.	-4	3792	.	0	.	.
COc1ccccc1NC(=S)NC(=O)/C=C/c1ccco1	2.0	-9	2458	9	-12	-3	8
Cc1cc(C)c(S(=O)(=O)N2CC=C(c3ccccc3)CC2)c(C)c1	-2.1	-4	5640	20	-5	-1	-11
O=C(N/N=C\C=C\c1ccc(Br)cc1)c1ccc2c(c1)OCO2	.	-13	5584	.	-5	.	.
COC(=O)CSc1nnc(-c2ccc(OC)cc2OC)o1	0.1	-2	8502	7	-5	10	12
COc1ccccc1N1CCN(C(=O)CCC(=O)O)CC1	.	-11	5048	.	1	.	.
CC1C/C(=N/O)C(C)CN1 (centres undefined)	.	-31	2679	.	5	.	.
Oc1ccc(C=NNP(=S)(c2ccccc2)c2ccccc2)cc1	8.2	.	.	2	.	2	1
CCOC(=O)c1c(C)c(C)n(Cc2ccc(OC)c(OC)c2)c1C	4.8	-8	2350	9	-11	-1	7
CC1Cc2nc(SCC(=O)Nc3ccc4c(c3)OCCO4)n(C)c(=O)c2S1 (centres undefined)	2.0	-13	10982	2	-16	7	14
COc1ccc(-c2[nH]c(-c3ccc4c(c3)OCO4)nc2-c2ccccc2)cc1	-2.5	1	3758	25	-14	-2	15
CN(C(=O)c1cccc(S(=O)(=O)N2CCCC2)c1)C1CCCCC1	0.3	4	8038	-1	.	-4	4
COCC(=O)N1CCN(c2cccc(Cl)c2)CC1	-3.4	-2	4272	4	7	-5	-7
O=C(Nc1cccc(-n2cnnn2)c1)c1cccnc1	1.5	-18	5550	8	7	3	-2
O=C1C2CCC3C(=NOCC(O)COCc4ccco4)CC(O)C(O)C3C2C(=O)N1c1ccc(F)cc1F (centres undefined)	2.8	.	.	1	.	0	-1
O=C(NCC(c1ccco1)N1CCN(c2ccccc2)CC1)C(=O)NC1CCCCC1 (centres undefined)	6.7	-27	5110	13	5	4	10
Cc1nc(C)c(-c2csc(Nc3ccc(O)cc3C)n2)s1	.	-4	3197	.	0	.	.
Cc1ccn2c(-c3csc(NCc4ccccc4)n3)c(C)nc2c1	2.2	-16	2904	-10	1	.	.
O=C(NNc1ccccc1Br)C(=O)n1ccc2ccccc21	3.9	-14	2540	-3	10	2	12
CCOC(=O)c1cn(CC#N)c2cc(F)c(F)cc2c1=O	1.4	-7	4107	-7	2	-4	6
CCN(CC)CC(O)Cn1c(C)c(-c2ccccc2)c2cc([N+](=O)[O-])ccc21 (centres undefined)	-6.1	.	3765	15	-5	5	30
O=C(NC1CCCCC1)C1CC(O)CN1C(=O)OCc1ccccc1 (centres undefined)	1.2	-21	2702	1	-10	.	.
COc1ccc(C(=O)COC(=O)/C=C/c2ccccc2)c(OC)c1	11	6	6275	15	.	7	-5
O=C(NC(c1ccccc1)c1ccccc1)C1CCCN(S(=O)(=O)c2cnc[nH]2)C1 (centres undefined)	-2.8	-7	5057	10	7	.	.
Cc1ccccc1C1NC(=O)Cc2ccccc21 (centres undefined)	5.5	6	2471	-3	-4	2	-3
Cc1ccc(N(C(=O)c2snc(C(N)=O)c2N)C(C(=O)NC2CCCC2)c2ccc(C)o2)cc1 (centres undefined)	8.3	-1	4836	4	5	-7	9
COc1ccc(C[C@H]2CN3C(=NC[C@@H]3Cc3ccc(O)cc3)N2C[C@H](C)NC(=O)CCC2CCCCC2)cc1	.	-13	4872	.	-11	.	.
COC(=O)C=CCC(C)OS(N)(=O)=O (centres undefined)	4.7	.	.	3	.	4	11
CCOc1ccc(N(CC(=O)Nc2ccc(Br)cc2)S(C)(=O)=O)cc1	5.5	-38	.	8	-10	5	0
CCOc1ccc(/C=N/NC(=O)c2cccc3ccccc23)c(OCC)c1	.	-20	6697	.	0	.	.
O=C(NCCC(=O)N1CCN(c2ccccc2F)CC1)c1ccco1	2.9	-15	.	5	6	0	2
CCCCc1nnc(NC(=O)CCSc2ccccc2)s1	6.8	-2	10525	-5	10	11	6
Cc1cccc(OC(C)C(=O)N(Cc2cccs2)C2CCS(=O)(=O)C2)c1C (centres undefined)	5.7	-22	4401	12	-1	6	4
CCOc1ncccc1C(=O)N1CCN(c2ccc(C(F)(F)F)cn2)CC1	6.5	-19	3998	1	10	14	10
Cc1ccc(NC(=O)c2cc3cccc([N+](=O)[O-])c3[nH]2)cc1	4.5	-104	6143	-17	-4	-1	3
COc1ccc(Nc2nc(C(=O)NCCCN3CCOCC3)cs2)cc1	7.0	9	16850*	10	11	7	9
O=S(=O)(Nc1ccccc1OC(F)F)c1ccc(S(=O)(=O)N2CCCC2)cc1	12	-25	3732	-4	.	4	2
CCN1C(=O)C2C(c3ccc(-c4ccccc4)c(OC)c3)N[C@@](CC(C)C)(C(=O)OC)C2C1=O (some centres undefined)	2.2	.	.	-3	.	6	6
NS(=O)(=O)c1ccc(CCNC/C=C/c2ccccc2)cc1	2.7	-14	4184	0	0	6	11

# The results go on:
mol	RN4220 kill	PrP UTR inh	Autofluor counter	ugtP null kill	BJeLR lethal	Mtb hypoxia rep	Mtb hypoxia rep growth
Cc1cc(Nc2ccc(Cl)cc2)nc(-c2ccccc2O)n1	-14	-1	4048	6	-2	11	3
CCc1nnc(NC(=O)C2CCN(C(=O)NC3CCCCC3)CC2)s1	.	-17	3111	.	3	.	.
CCN(CC)C(=O)COc1ccc(/C(C)=N/NC(=O)c2ccccc2O)cc1	.	-12	4023	.	-1	.	.
Cc1cc(C)cc(N2CC(C)(C)C2=O)c1	16	-21	2491	-8	12	2	4
CCN(CC)S(=O)(=O)c1ccc2c(c1)N(CC(=O)NCc1ccco1)C(=O)CO2	1.2	-19	3899	-5	-3	-2	0
CSc1sc(C(=O)NN)c2c1C1(CCC2)SCCS1	11	-18	3810	0	-2	1	4
COc1cc(/C=C/C(=O)c2c(O)ccc3c(C)cc(=O)oc23)ccc1O	-0.2	-3	2862	-3	-3	.	.
Cc1ccc(S(=O)(=O)c2ccc(Cl)cc2)cc1S(N)(=O)=O	1.4	-22	4192	7	2	0	-4
Oc1ccc(C=NNc2nc(N3CCCC3)nc(N3CCCC3)n2)cc1O	-5.1	.	.	-18	.	-6	-4
O=C(c1ccco1)N1CCN(C(c2ccc(F)cc2)c2nnnn2CC2CCCO2)CC1 (centres undefined)	0.1	-16	3733	-1	-3	.	.
O=C(CCC(=O)N1CCN(S(=O)(=O)c2ccccc2)CC1)c1cccs1	-2.0	-12	20748*	4	2	8	10
CC(=O)c1ccc(OCc2cccc(C(F)(F)F)c2)cc1O	7.9	-15	2456	8	-2	10	-2
O=C(CCC(=O)N1CCOc2ccc(Cl)cc21)NCCCN1CCN(c2ccccc2F)CC1	-5.7	3	5953	-1	2	-2	6
C/C(Cc1ccccc1)=N\NC(=O)CNC(=O)c1ccc(C(C)(C)C)cc1	.	-21	1932	.	-7	.	.
N[C@@H](Cc1ccccc1)C(=O)N1CCC(C(=O)NCC(=O)Nc2ccc(F)cc2)CC1	-1.2	-2	6340	-5	3	-3	6
Nc1nc(-c2ccc3c(c2)CCCC3)cs1	6.4	-98	4948	6	.	-10	-6
Cc1ccccc1C(=O)N1CCC(C(=O)NC2CCCCC2)CC1	3.1	-17	3834	3	6	2	6
O=C(NC1CCCCC1)c1cccnc1C(=O)O	5.0	-29	10439	2	0	3	10
Cc1ccc(CN(C)CC(=O)Nc2cccc([N+](=O)[O-])c2)o1	3.2	-8	2408	15	10	13	4
O=S(=O)(Nc1cccc(-c2ccc3nncn3n2)c1)c1cccc(F)c1	5.8	-5	?	12	2	8	6
Cc1nn(Cc2ccccc2Cl)c(C)c1NC(=O)c1nc2ncccn2n1	-18	-3	2814	-6	-8	4	3
COc1ccc(C)cc1NC(=O)c1ccc(OCc2c(C)noc2C)cc1	-1.5	-13	2938	-4	.	-1	8
CCc1ccc(NCc2ccc(OC)c(Cn3ccnc3)c2)cc1	-4.7	5	3091	-11	4	-7	-1
N#C/C(=C/c1cc(Br)cs1)C(=O)NCC1CCCO1 (centres undefined)	-1.0	-11	2699	6	1	.	.
CCCCc1nc2sc3c(c2c(=O)[nH]1)CC(C)(C)OC3	-0.7	-23	5195	1	-10	-3	16
Cc1ccc(NC(=O)c2ccccc2NC(=O)c2cccs2)cc1	1.0	-27	4209	34	-2	0	0
CC(=O)N1c2ccc(S(=O)(=O)NCC3CCC(C(=O)N4CCCCC4)CC3)cc2CC1C (centres undefined)	1.7	-30	4170	8	0	6	0
O=C(Cn1nc(-c2cccs2)ccc1=O)Nc1ccc(Br)cc1	3.9	-22	3834	1	1	-3	-3
O=C(c1cc2ccccc2o1)N(Cc1nnc(-c2ccccc2Cl)o1)C1CC1	5.8	-27	4914	6	3	14	7
CSc1nc2ccc(NC(=O)C3=NN(c4ccccc4)C(=O)CC3)cc2s1	-7.0	-57	3215	7	3	-7	1
O=C1CS/C(=N\N=C\c2ccccc2Cl)N1CC1CC1	.	-5	5548	.	-5	.	.
COc1ccccc1N1CCN(C(=O)CCCn2c(=O)[nH]c3ccsc3c2=O)CC1	0.7	-17	3933	6	7	-2	5
CCOC(=O)N1CCC(N(CCOC)C(=O)Nc2ccc(C)c(C)c2)CC1	4.1	-37	11039	11	7	4	-2
CC(=NNC(=O)C(C)Oc1ccc([N+](=O)[O-])cc1)c1ccccn1 (centres undefined)	2.9	.	.	-14	.	1	13
COc1ccc(S(=O)(=O)N(CC(=O)N2CCOCC2)c2cc(Cl)ccc2OC)cc1OC	-4.4	-10	8349	2	-8	0	-7
COc1ccc(CCNC(=O)c2ccc(CNS(=O)(=O)c3ccc(C(C)(C)C)cc3)cc2)cc1OC	3.6	-19	2488	9	4	7	7
O=C(O)CN1C(=O)/C(=C\c2cc(Br)ccc2OCc2ccc(Cl)cc2Cl)SC1=S	.	-9	3134	.	8	.	.
CC(NCc1ccc(OCC(N)=O)cc1)C12CC3CC(CC(C3)C1)C2 (centres undefined)	-1.0	-1	3982	1	9	6	26
C(=NNc1nc2ccccc2[nH]1)c1cccs1	1.6	.	.	0	.	6	9
O=C(C/C=N/OCc1c(Cl)cccc1Cl)c1cnc(-c2ccccc2)s1	.	-15	2722	.	-5	.	.

# Source: PubChem BioAssay
